Screening results from PubChem.
Beta apoptosis: beta cell apoptosis inhibition; INS-1E cytokine-induced death, ATP luminescence, 48 h; percent of positive-control rescue, neutral wells zero; protection from apoptosis, % (no concentration beside the values); 300,000 compounds, 0.8% hits; AID 435005;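 active = all replicates at 75% or more, or half of them and the mean; inconclusive = half reach 75% but not the mean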;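 also: 0% = cytokine-treated negative control wells and 100% = positive control rescue; higher means more ATP so stronger rescue from cytokine killing; wells of about 40 µL received 100 nL stock; the first replicate is given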
ALR H2O2 inh: inhibitors of human sulfhydryl oxidase ALR | inhibition, % (no concentration beside the values) | 290,000 compounds, 3.8% hits | purified ALR, DTT oxidation, H2O2 HRP-luminol luminescence;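 active = mean and each replicate at 75% or more; inconclusive = only one of the two met; inactive = neither met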;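 also: stock transfer was 7.5 nL into about 7.5 µL; 0% = neutral wells and 100% = wells with inactivated enzyme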
Target sequence (P55789 whole entry, looked up): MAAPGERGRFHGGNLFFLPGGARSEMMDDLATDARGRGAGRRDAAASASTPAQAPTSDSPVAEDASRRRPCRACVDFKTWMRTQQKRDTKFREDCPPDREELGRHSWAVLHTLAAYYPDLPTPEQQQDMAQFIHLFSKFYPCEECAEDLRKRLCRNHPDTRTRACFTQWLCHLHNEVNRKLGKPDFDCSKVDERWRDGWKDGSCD
T cruzi inh: blocks replication of Trypanosoma cruzi; T. cruzi beta-gal in NIH3T3, luminescence, 90 h; inhibition, % (test concentration not listed); 300,000 compounds, 1.4% hits; AID 1885;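 active = mean inhibition across valid replicates above about 55%, limit read from the data; inconclusive = mean below that limit but half or more replicates reach it; inactive = mean below it, under half of replicates reach it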;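 also: signal also drops with host cell toxicity which is not excluded here; 0% = plate median of DMSO wells and 100% = zero luminescence signal; higher percent means less beta-gal luminescence so fewer parasites; stock transfer was 50 nL into about 50 µL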
Calb FLC: affects C. albicans growth with fluconazole. 300,000 compounds, 0.57% hits. C. albicans CaCi-2 (fluconazole-resistant clinical isolate) + fluconazole, Alamar Blue growth, 48 h. AID 1979. growth inhibition, % (concentration not given with the values);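 active = most replicates above 75%; inconclusive = exactly half above 75%; inactive = most below 75%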;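 also: all wells also contain fluconazole at 8 µg/ml as a sub-toxic cotreatment; 0% = median of DMSO wells and 100% = median of geldanamycin control wells; wells of about 8 µL received 7.5 nL stock; the first replicate is given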
rRNA inh HTS: inhibitors of bacterial rRNA selective over humanized ribosomes; 350,000 compounds, 1.6% hits; E. coli WT GFP vs humanized-ribosome RFP mutants, fluorescence, 24 h; hits give low values; DMSO median 0, no signal -100; GFP signal change (wild-type ribosome), % (concentration not given with the values); AID 720706;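 active = significant combined selectivity score with lowered wild-type GFP, culture density cut under 30%, mutant RFP and density less affected; inactive = any of these conditions unmet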; also: one replicate is shown; some compounds called inactive have numbers as strong as hits
B2AR ag: human beta-2 adrenergic receptor agonism by FAP | P07550 | response, % (concentration not given with the values) | 340,000 compounds, 0.43% hits | AID 504454 | Am2.2-beta2AR cells, FAP receptor internalization, flow cytometry; reference of the scale not given here;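 active = response above a set limit, near 3 SD of response in nonfluorescent compounds, cut at about 42% in these data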;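 also: stock transfer was 100 nL into about 11 µL; a reference agonist was the positive control; negative values mostly stem from fluorescent compounds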
Target sequence (P07550 whole entry, looked up): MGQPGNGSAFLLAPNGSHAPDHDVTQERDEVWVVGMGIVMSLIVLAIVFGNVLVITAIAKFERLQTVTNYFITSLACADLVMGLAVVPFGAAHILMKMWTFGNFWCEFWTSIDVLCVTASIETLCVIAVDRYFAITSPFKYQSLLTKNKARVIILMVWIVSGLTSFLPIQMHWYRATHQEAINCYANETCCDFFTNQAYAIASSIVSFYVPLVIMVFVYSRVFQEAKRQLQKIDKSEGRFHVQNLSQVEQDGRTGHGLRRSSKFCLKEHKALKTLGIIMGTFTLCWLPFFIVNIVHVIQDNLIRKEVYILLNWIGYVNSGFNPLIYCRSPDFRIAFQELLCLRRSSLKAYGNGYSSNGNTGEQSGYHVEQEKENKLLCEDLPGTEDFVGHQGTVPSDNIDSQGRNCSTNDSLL
LANA-H2B inh: blocks KSHV LANA binding to histone H2A/H2B | cell-free LANA-H2A/H2B peptide, fluorescence polarization | inhibition, % (test concentration not listed) | 320,000 compounds, 0.6% hits | AID 2629; in the data active = inhibition mostly above about 10%, no sharp cut-off; inactive = mostly below about 6.7%;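 also: stock transfer was 7.5 nL into about 10 µL; 0% = median of vehicle wells and 100% = median of positive control wells; one replicate is shown; the record names a cut of 25% in any replicate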
A1 inh: inhibitors of the anti-apoptotic protein A1, read as caspase activation | MEF A1-2A-BIM cells, Caspase-Glo 3/7 luminescence, 3 h; percent of clofoctol response, vehicle zero | caspase activation, % (no concentration beside the values) | 330,000 compounds, 0.066% hits;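 active = over half of replicate activation scores above 10%, or exactly half above 10 with the replicate mean above 10; inconclusive = replicate mean below 10 yet half the replicates above 10; inactive = over half of replicates below 10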;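 also: wells of about 30 µL received 50 nL stock; many hits fall short of the cut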
rRNA inh HTS OD600: also measured in rRNA inh HTS; calls as there; OD600 change, %; measured here: OD600 growth;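 optical density of the mix in the first replicate; 0 = DMSO median and -100 = no signal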
rRNA inh HTS RFP: further read-out of rRNA inh HTS, marked with its call; RFP signal change, %; measured here: RFP humanized mutant strains;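 first replicate; 0 = DMSO median and -100 = no signal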
The depositor's hits bear a star; ? = inconclusive; / = not tested or not shown. This is a subset; count on the stated rates, not on these rows.

compound	rRNA inh HTS OD600	LANA-H2B inh	B2AR ag	rRNA inh HTS	ALR H2O2 inh	Beta apoptosis	A1 inh	rRNA inh HTS RFP	Calb FLC	T cruzi inh
Cc1ccc(S(=O)(=O)N(C)c2c(C)ccc(S(=O)(=O)N3CCN(C)CC3)c2C)cc1	-19.4	8.3	1.0	-17.9	1.0	-15.1	2.1	11.1	-0.9	16.7
C=CC[C@H](CC(=O)N(CCO)Cc1ccccc1)C(=O)N[C@H](C)COC(=O)[C@@H](CC=C)CC(=O)OC(C)(C)C	-1.1	0.8	-13.8	14.5	-1.9	-4.1	-0.1	10.5	/	/
COc1ccc(Cl)cc1NCC(=O)Nc1ccc(OC)c(S(=O)(=O)N2CCCCC2)c1	-12.3	3.9	3.6	-5.5	-7.9	0.2	-0.6	-1.0	/	/
CC(=O)N1CCN(C(=O)CCNS(=O)(=O)c2ccccc2)CC1	16.5	-1.7	-7.5	6.0	-5.7	0.2	0.0	-1.5	/	/
CC(NC(=O)C1CCCN1S(=O)(=O)c1cccc2nsnc12)c1ccccc1 (configuration not stated)	/	1.7	1.9	/	-0.5	4.3	0.3	/	0.0	-2.2
O=C(O/N=C(\c1ccccc1)c1ccncc1)c1ccccc1Cl	12.5	4.1	-6.9	24.1	0.6	3.0	-0.2	-0.2	0.7	-6.7
COc1cccc(C(=O)Nc2ccc(NC(=O)c3ccco3)nc2)c1	/	-0.4	-9.9	/	-10.5	-2.3	-0.6	/	/	7.3
CCN(CC)S(=O)(=O)c1ccc(OC(C)C)c(N)c1	-10.2	-1.4	-1.6	-12.4	-1.2	-4.3	-0.3	-14.3	-2.8	-5.3
Cc1n[nH]c(C)c1S(=O)(=O)N1CCCC(C(=O)NCc2cccs2)C1 (configuration not stated)	/	0.2	-0.1	/	-3.6	-2.2	-0.6	/	6.5	-11.5
Cc1noc(C)c1CSCC(=O)Nc1nc2ccc(Oc3ccccc3)cc2s1	/	-2.9	-5.1	/	-9.5	/	0.1	/	21.7	23.8
Cc1nn(Cc2ccc(Cl)cc2Cl)c(Cl)c1/C=C/C(=O)OCC(=O)NCC(F)(F)F	/	4.9	-1.6	/	-11.6	1.1	-0.9	/	-2.0	10.1
Cc1c(NC(=O)Cn2cc([N+](=O)[O-])cn2)c(=O)n(-c2ccccc2)n1C	5.1	4.7	-0.8	11.9	-1.4	-6.3	0.9	-0.2	-5.8	-8.6
Cc1cc(C)cc(NC(=O)CN(c2ccc(F)cc2)S(C)(=O)=O)c1	-28.5	4.0	-1.7	-16.1	2.3	6.0	0.2	-3.2	?	10.1
O=C(COC(=O)CCc1ccc(S(=O)(=O)N2CCOCC2)cc1)NC1CCCC1	/	-2.6	6.4	/	-10.6	1.2	0.5	/	-12.0	-2.7
CCN(CCCNC(=O)C1CCN(S(=O)(=O)CC)CC1)c1ccccc1	-1.9	1.1	-1.5	0.2	98.6*	7.6	0.2	-0.3	-13.2	-2.8
Cc1ccc2c(c1)C(c1ccccc1)N(C(=O)CC(C)C)CC(=O)N2 (configuration not stated)	15.1	8.3	4.8	11.4	0.3	4.9	0.1	-0.4	-8.8	-5.4
CCC1CN(C(=O)NCc2ccc(C)cc2)c2cc(C)ccc2O1 (configuration not stated)	-64.5	-2.9	0.1	-29.7	2.4	1.3	-0.9	-4.5	-4.7	29.8
CCOc1ccc(Nc2nc3cc(S(=O)(=O)N(CC)CC)ccc3o2)cc1	/	-2.0	7.3	/	-12.6	7.6	-0.3	/	-2.7	39.8
CCOC(=O)c1[nH]c2c(c1C)C(=O)CC(c1ccc(N(C)C)cc1)C2 (configuration not stated)	-16.2	0.6	0.0	-11.4	34.3	6.1	0.2	0.3	-25.4	-6.7
Cn1c(=O)c(C(=O)COC(=O)c2cc(C3CC3)nc3ccccc23)c(N)n(Cc2ccccc2)c1=O	-4.2	-1.2	/	5.1	-1.2	9.5	-1.0	5.5	/	/
COc1ccc(CC2(C)OC(c3ccc(C)cc3)=NN2C(C)=O)cc1 (configuration not stated)	/	3.1	2.8	/	12.9	-6.1	0.5	/	-1.8	3.5
CSc1ccccc1OCc1cc(C(=O)N[C@H]2CCCCNC2=O)no1	-5.9*	-5.4	-2.1	-18.9*	1.9	-3.5	-5.7	-0.3*	14.5	-2.5
COc1ccc(C)cc1Nc1n[n+](-c2ccccc2)c(-c2c(OC)ccc3ccccc23)s1	-52.7	-1.8	20.4	-34.8	-39.1	124.2*	0.0	0.6	/	/
CN(Cc1nc(Cc2ccccc2F)no1)CC1(N2CCOCC2)CCCCC1	10.2	-1.0	12.2	7.2	1.1	2.5	0.9	6.6	2.0	-5.1
Cc1ccc(C(C)C)c(OCC(=O)Nc2cccc(S(=O)(=O)NC3=NCCCCC3)c2)c1	-30.9	-3.6	-3.9	-8.6	-0.5	-7.6	1.5	2.3	-7.0	9.0
CCc1c(C)nc2ncnn2c1N1CCCC(C(=O)NCCc2ccc(OC)cc2)C1 (configuration not stated)	/	4.4	8.5	/	-3.5	4.9	0.7	/	-8.9	-11.1
O=C(CSc1nccc(=O)[nH]1)c1cc2ccccc2o1	1.6	-3.8	-2.1	10.5	/	-7.1	-0.7	-6.3	12.2	0.8
COC(=O)COc1ccc(-c2nccc(-c3ccccn3)n2)cc1	3.1	1.6	8.3	10.3	12.0	3.0	-1.1	-0.4	-0.5	-11.0
C/C(=N/NC(=O)CNC(=O)C1COc2ccccc2O1)c1ccc2c(c1)OCCO2 (configuration not stated)	-1.7	4.5	-0.3	1.1	/	-2.2	0.4	-0.3	-1.3	0.0
CC(C)C(O)(c1ccccc1)C(CN1CCOCC1)c1ccccc1 (configuration not stated)	-29.5	0.0	-9.0	-31.0	-16.2	4.0	0.3	-6.0	1.0	-15.3
O=C(COc1ccc(Cl)cc1Cl)N1CCN(C(=O)c2ccco2)CC1	-10.9	4.1	-17.6	-7.6	-24.3	3.0	0.9	0.0	2.0	0.8
C=CCSc1nc2[nH]ncc2c(=O)[nH]1	/	3.3	-3.6	/	4.7	-16.9	0.1	/	?	-8.3
O=C(CSc1nnc(-c2ccccn2)n1Cc1ccco1)c1ccc(Cl)cc1	/	-2.4	-7.2	/	97.3*	-10.3	0.9	/	19.1	1.1
O=C(NC1C2CC3CC(C2)CC1C3)c1ccc2c(c1)OCO2 (configuration not stated)	-17.0	-2.7	-2.1	-14.6	-5.0	2.7	0.0	-6.0	-21.6	10.6
O=C(Nc1nc2ccccc2s1)C1CC(=O)N(c2ccc(F)cc2)C1 (configuration not stated)	/	6.2	-5.6	/	/	-5.2	0.7	/	-5.7	-18.6
O=C(NCc1cn(-c2ccccc2)nc1-c1ccccc1)c1cc([N+](=O)[O-])cc([N+](=O)[O-])c1	/	3.1	3.6	/	-10.1	10.3	0.2	/	8.6	61.5*
O=C(O)CCC(=O)N1CCN(c2ccc(C(=O)c3ccc(F)cc3)cc2)CC1	/	2.8	-4.5	/	2.1	-4.6	0.3	/	-5.1	-10.4
N#Cc1c(-c2ccccc2)c(-c2ccccc2)nn(CC(=O)NNC(=O)Nc2ccc(Cl)c(Cl)c2)c1=O	/	0.2	4.1	/	0.2	6.9	0.5	/	42.5	2.2
CCOC(=O)c1ccc(NC(=O)CSCc2ccco2)cc1	/	-6.8	17.0	/	99.6*	-5.4	-0.6	/	15.4	12.8
Cc1ccc(S(=O)(=O)N2CCC(NC(=O)c3cccc(F)c3)CC2)cc1	8.1	7.7	-1.1	9.9	1.1	-3.6	0.2	-0.6	13.3	-10.6
Cc1nnc(Nc2ccc(C(=O)O)cc2)[nH]c1=O	8.1	1.9	-1.1	6.0	-5.2	-4.4	-0.9	-0.1	-6.4	1.1
CC1CCN(CCCNC(=O)c2cc3c(=O)n(C)c4ccccc4c3n2C)CC1	1.9	3.4	4.5	-8.7	-12.4	7.2	1.1	4.7	0.4	17.6
O=C(CSc1nnc(Cc2ccccc2)o1)N1CCc2ccccc21	/	-0.8	-3.1	/	-1.5	/	-0.6	/	-1.9	12.4
CC(=O)N1CCOc2ccc(S(=O)(=O)NCCc3ccccc3)cc21	-3.4	0.2	6.8	-9.6	-8.9	-4.3	1.5	0.2	-41.5	2.6
O=C(N/N=C/c1ccc(OC(=O)c2cccs2)cc1)c1ccc(F)cc1	/	0.2	4.9	/	-12.2	0.1	-2.9	/	10.7	-7.7
O=C(c1ccccc1)N1CCC2(CC1)NCCc1[nH]cnc12	17.1	-7.8	-3.5	7.6	-21.3	-3.2	1.2	-0.3	-7.0	3.3
COc1ccc(N2CCN(C(=O)CCc3ccccc3OC)CC2)cc1	-6.1	-1.3	-5.9	-13.7	/	-2.4	1.9	1.4	4.8	-6.4
CN(C)/C=N/S(=O)(=O)c1ccc(Cl)cc1	8.5	-1.1	-2.3	14.2	-1.9	3.4	-0.1	-1.3	-2.9	-14.6
O=C(NCCN1CCN(S(=O)(=O)c2ccccc2)CC1)C(=O)Nc1ccc(F)cc1	10.8	0.6	1.1	10.7	-2.8	-1.2	-0.8	-0.1	26.8	0.9
CCC1CCCCN1C(=O)CSc1nc2ncccc2[nH]1 (configuration not stated)	6.0	3.8	-6.9	16.0	-10.6	-3.8	-0.5	9.9	2.1	-8.0

Additional records follow:
compound	rRNA inh HTS OD600	LANA-H2B inh	B2AR ag	rRNA inh HTS	ALR H2O2 inh	Beta apoptosis	A1 inh	rRNA inh HTS RFP	Calb FLC	T cruzi inh
CCNc1c(NS(=O)(=O)c2ccc(C3CCCCC3)cc2)c(=O)oc2ccccc12	5.3	-2.0	8.1	-0.1	/	-1.0	-0.3	0.6	-1.6	-20.5
CC1Cc2ccccc2N1C(=S)NC1CCCC1 (configuration not stated)	-9.9	1.4	2.5	0.5	6.9	-2.2	-1.7	-3.7	-1.4	-3.5
CCOC(=O)c1c(N=CN(C)C)c(C#N)n2c1CCC2	/	-0.2	-5.0	/	/	-4.2	0.0	/	-16.9	-8.9
CCCC(C)C(=O)Nc1cc([N+](=O)[O-])ccc1Cl (configuration not stated)	-5.9	1.2	-1.9	3.1	14.3	-1.7	-0.5	3.0	2.3	-13.2
O=C(/C=C/c1ccc(Cl)cc1)N1CCN(c2c(Cl)cccc2[N+](=O)[O-])CC1	-16.6	/	-0.3	-12.8	/	4.2	0.1	-16.1	?	40.2
CCc1ccc(OCC(=O)Nc2ncn[nH]2)cc1	/	-3.3	-0.4	/	-0.8	-4.4	-5.1	/	0.5	0.9
Cc1ccc(CNC(=O)c2ccc(CS(=O)Cc3ccccc3Cl)o2)cc1 (configuration not stated)	-20.2	1.4	-1.5	-11.6	98.8*	-3.3	-0.2	-5.9	-12.2	-4.2
O=C(CSc1ccccc1C(=O)O)Nc1ccc2c(c1)OCO2	12.2	-0.5	6.6	6.4	/	-2.3	-1.0	-0.8	/	/
Nc1cnn(Cc2ccc(F)cc2)c1	9.5	-2.9	17.0	9.8	/	-4.6	?	0.5	-8.3	0.5
